High-throughput results from PubChem.
Vaccinia mCherry: inhibitors of vaccinia virus infection (mCherry reporter signal) | Vaccinia virus mCherry reporter infection, fluorescence; about a quarter of the inactives have no number | Potency, µM (top dose mostly 36.5 µM), inactives show at the top dose activity change, negative = inhibition, most hits filed as inhibitors | 310,000 tested, 0.63% active; active = well fitted inhibition curve with a large enough effect; inconclusive = small, poorly fitted or top-dose-only effect; inactive = no such curve, though single readings can be large or run the other way; tested in A549 cells; also: nearly all actives have a fitted effect of over 35% in size; inactives centre near -10
VACV Venus inh: inhibitors of vaccinia virus (Venus reporter). Potency, µM (doses to about 36.5 µM), inactives show at the top dose activity change, negative = inhibition, usual class: inhibitors. 330,000 tested, 0.46% active. Vaccinia virus Venus reporter expression, fluorescence. AID 720580; active means well fitted inhibition curve with a large enough effect; inconclusive means small, poorly fitted or top-dose-only effect; inactive means no such curve, though single readings can be large or run the other way; tested in A549 cells; also: nearly all actives have a fitted effect of over 30% in size; inactives centre near -10
Active calls of the source: *; i = inactive; ? = inconclusive; . = not tested or not shown; & = joins results of further samples; [ ] = dose if it differs, or a comment. % is scaled to controls: 0 for no effect and ±100 for the full control effect; potency is read from the fitted curve at half-maximal effect.

SMILES | Vaccinia mCherry | VACV Venus inh
Oc1c(C(Nc2ccccn2)c2cccnc2)cc(Cl)c2cccnc12 (centres undefined) | ? | ?
COc1ccc(-n2c(-c3cc(-c4ccccc4)sc3N)n[nH]c2=S)cc1 | -27% | -24%
CCc1ccc(N2C(=O)CC(N3CCN(c4ccccn4)CC3)C2=O)cc1 (centres undefined) | i | -7%
Cn1nnnc1SCC(=O)N1CCCCC1 | 7% | 12%
COc1ccc(NC(=O)c2cccnc2N2CCCCC2)cc1 | . | -10%
Cc1oc(-c2ccc(F)cc2F)nc1CN1C[C@@H]2C[C@@H](C1)c1cccc(=O)n1C2 | i | -20%
COc1cccc(CNS(=O)(=O)c2cc3[nH]c(=O)c(=O)[nH]c3cc2C)c1 | -9% | -1%
COc1ccc(C(C(=O)NC2CCCC2)N(Cc2cccnc2)C(=O)c2snc(C(N)=O)c2N)cc1 (centres undefined) | 13% | -14%
CCCCCCC(C)OC(=O)c1ccccc1C(=O)O (centres undefined) | i | -7%
CCc1ccccc1NC(=O)C1CCCN1C(=O)NCc1ccccc1 (centres undefined) | 12% | 3%
CC(=O)N1CCOc2ccc(S(=O)(=O)N3CCN(c4cccc(C(F)(F)F)c4)CC3)cc21 | -3%[7.34 µM] | 15%[7.34 µM]
COC(=O)c1cc(C(=O)OC)n(Cc2ccc(F)cc2)c1C | i | -11%
NNCc1cccc(O)c1 | i | -6%
CCc1nnc(NC(=O)c2ccc(N3C(=O)CCC3=O)cc2)s1 | 5% | -3%
CC1CCN(C(=O)c2cc3c(=O)n(C)c4ccccc4c3s2)CC1 | -17% | -13%
COc1ccc(-c2csc(-c3c(N)c(C(=O)c4ccc(OC)c(OC)c4)n4ccccc34)n2)cc1 | -17% | -9%
CCCOc1ccc(C(=O)Nc2cc(-c3nn4c(C)nnc4s3)ccc2C)cc1 | 7% | 0%
Cc1cccc(C)c1-n1nnnc1-c1cnccc1C(F)(F)F | -11% | -4%
O=c1c2ccccc2c(=O)n(-c2ccccc2)n1CCCCBr | i[7.34 µM] | 2%[7.34 µM]
Cc1cc(C)n(-c2nc3ccccc3nc2Nc2ccc(Cl)c(C(=O)OC(C)C)c2)n1 | -4% | -9%
CCc1nc2ccccc2n2c(-c3ccc(C)cc3)c3c(=O)n(C)c(=O)n(C)c3c12 | -8% | 1%
CCO[C@@H]1OC(C(N)=O)=C[C@H](c2ccc(C(F)(F)F)cc2)[C@H]1CCCO | -8% | -5%
COc1ccc(/C=N/NC2=NS(=O)(=O)c3ccccc32)cc1OC | i | -14%
COc1ccc(OC)c2c1C(=O)CC2C (centres undefined) | i | -10%
COc1ccc(NC(=O)CNC(=O)c2nn(-c3ccc(OC)cc3OC)c(=O)c3ccccc23)c(OC)c1 | -16% | -3%

7 neighbouring compounds from above, quoted:
SMILES | Vaccinia mCherry | VACV Venus inh
COC(=O)c1cc(C(=O)OC)n(Cc2ccc(F)cc2)c1C | i | -11%
NNCc1cccc(O)c1 | i | -6%
CCc1nnc(NC(=O)c2ccc(N3C(=O)CCC3=O)cc2)s1 | 5% | -3%
CC1CCN(C(=O)c2cc3c(=O)n(C)c4ccccc4c3s2)CC1 | -17% | -13%
COc1ccc(-c2csc(-c3c(N)c(C(=O)c4ccc(OC)c(OC)c4)n4ccccc34)n2)cc1 | -17% | -9%
CCCOc1ccc(C(=O)Nc2cc(-c3nn4c(C)nnc4s3)ccc2C)cc1 | 7% | 0%
Cc1cccc(C)c1-n1nnnc1-c1cnccc1C(F)(F)F | -11% | -4%

Structural class: those above containing fluorine
SMILES | Vaccinia mCherry | VACV Venus inh
Cc1oc(-c2ccc(F)cc2F)nc1CN1C[C@@H]2C[C@@H](C1)c1cccc(=O)n1C2 | i | -20%
CC(=O)N1CCOc2ccc(S(=O)(=O)N3CCN(c4cccc(C(F)(F)F)c4)CC3)cc21 | -3%[7.34 µM] | 15%[7.34 µM]
COC(=O)c1cc(C(=O)OC)n(Cc2ccc(F)cc2)c1C | i | -11%
Cc1cccc(C)c1-n1nnnc1-c1cnccc1C(F)(F)F | -11% | -4%
CCO[C@@H]1OC(C(N)=O)=C[C@H](c2ccc(C(F)(F)F)cc2)[C@H]1CCCO | -8% | -5%

Further entries:
SMILES | Vaccinia mCherry | VACV Venus inh
COC(=O)C[C@H]1c2cc(F)cc(F)c2S(=O)(=O)N1C1CCN(Cc2ccccc2)CC1 | -7%&-2% | -14%&-19%
COc1ccc(C2SCC(=O)N2C)cc1 (centres undefined) | -8% | -4%
Cc1cccc(C)c1N1CCc2cn[nH]c21 | -22% | -23%
CCn1c(Cc2cccc3ccccc23)nnc1SCC(=O)Nc1nccs1 | . | -24%
COc1ccc(-c2c(Sc3ccccc3)c3cc(-c4ccc5c(c4)OCO5)ccc3n2C)cc1 | i | 3%
O=C(O)c1ccc(NC(=O)C2(c3ccccc3)CCOCC2)cc1 | . | -4%
COc1ccccc1NC(=S)NC12CN3CN(CN(C3)C1)C2 | 0% | -8%
CCc1ccc(C(=O)C(C)OC(=O)CN2C(=O)NC3(CCCC3)C2=O)cc1 (centres undefined) | ? | -11%
CCN(CC)C(=O)CSC1=Nc2ccccc2C2=NC(c3ccccc3)C(=O)N12 (centres undefined) | -8% | -10%
Cc1ccc(-c2c3c(nc4sc(C(N)=O)c(N)c24)CCC3)cc1 | . | -22%
COc1cc(COCC(O)CN2CCN(Cc3ccc4c(c3)OCO4)CC2)cc(OC)c1OC (centres undefined) | i | 7%
O=C(NCc1ccco1)c1ccc(Cn2c(SCc3ccc(F)cc3)nc3cccnc32)cc1 | -8% | -6%
CNc1ccccc1NC(=O)CCn1c(=S)oc2ccccc21 | i | 1%
COc1ccc(-c2onc(C)c2C)cc1S(=O)(=O)NCC1CCN(Cc2ccccc2F)CC1 | -23% | -19%
Cc1cccc(/C=N/NC(=O)c2cc(Br)ccc2O)n1 | -29% | -22%
CCN(CC(=O)N1CCOCC1)S(=O)(=O)c1ccccc1 | 4% | 2%
N/C(=N\OC(=O)c1ccc2ccccc2c1)c1ccccn1 | -10% | -9%
CC1=C(C(=O)OC2CCCC2)C(c2ccc(Cl)cc2)CC(=O)N1 (centres undefined) | -15% | -13%
CSc1ccccc1OCc1cc(C(=O)NCC(C)Oc2cccnc2)no1 (centres undefined) | i | -9%
O=C(N/N=C/c1cc([N+](=O)[O-])ccc1O)/C(=C\c1cccs1)NC(=O)c1ccccc1 | -12% | -23%
CCOC(=O)C1CCN(S(=O)(=O)c2ccc(OCC(=O)OC)cc2)CC1 | 0% | -15%
CCn1ccnc1CN1CCCC(C(=O)c2ccc(OC)cc2OC)C1 (centres undefined) | -10% | -11%
CCCCn1c(CCC(=O)O)nc2cc(S(=O)(=O)N(CC)CC)ccc21 | 19% | 38%[activator]
COc1ccc(NC(=S)NC(=O)/C=C/c2ccco2)c(OC)c1 | -8% | -26%
CC(=O)c1ccc(S(=O)(=O)NCCOc2ccccc2)cc1 | -14% | -17%

Individual results from the entries so far.
Vaccinia mCherry result of N/C(=N\OC(=O)c1ccc2ccccc2c1)c1ccccn1 : -10%
Vaccinia mCherry result of CCCCn1c(CCC(=O)O)nc2cc(S(=O)(=O)N(CC)CC)ccc21 : 19%

Remaining list, next part
SMILES | Vaccinia mCherry | VACV Venus inh
CN(Cc1cccc(Cl)c1Cl)C(=O)c1cccc(S(=O)(=O)N2CCN(Cc3ccccc3)CC2)c1 | -17% | -21%
O=c1[nH]c(C2CCN(S(=O)(=O)c3cccc([N+](=O)[O-])c3)CC2)nc2c1nnn2Cc1ccccc1 | i | -4%
Cc1cc(OC(C)C(=O)NCc2cccnc2)c2c(C)c(C)c(=O)oc2c1 (centres undefined) | -13% | -9%
O=C(c1ccccc1-c1ncc[nH]1)N1CCCC(Nc2ccc(F)cc2)C1 (centres undefined) | i | -14%
CCOC(=O)[C@]12Cc3ccccc3[C@H]1N(Cc1ccccc1)C(=O)c1ccccc12 | ? | ?
COc1ccccc1N1CCN(C(=O)CCCN2C(=O)c3cccc4cccc(c34)C2=O)CC1 | 11µM* | -27%
CCOC(=O)C1(CCCc2ccccc2)CCN(C2CCC2)CC1 | -15% | -3%
CC1(Cc2cccc(C(N)=O)c2)C(=O)Nc2c(Cl)cccc21 (centres undefined) | 6% | -6%
CCOC(=O)C1=C(C)N=c2s/c(=C/c3ccco3)c(=O)n2C1c1cccc(OC)c1 (centres undefined) | . | 6%
COc1ccccc1NC(=O)C1CCN(S(=O)(=O)c2ccc3c(c2)oc(=O)n3C)CC1 | -5% | -10%
Cc1cccc(C(=O)NCC(=O)OCc2nnc(-c3ccccc3)o2)c1 | -10% | -3%
COc1ccc(CCNC(=O)CSCc2ccc(C)cc2)cc1OC | i | -11%
Cc1ccc(N2CC(O)Cn3c2nc2c3c(=O)[nH]c(=O)n2C)cc1 (centres undefined) | 0% | -3%
COc1ccc(C2c3ccc(O)cc3Oc3ncn(CCN4CCOCC4)c(=N)c32)cc1OC (centres undefined) | i | -9%
O=C(C1COc2ccccc2O1)N1CCc2ccccc2C1 (centres undefined) | . | -9%
CCn1cc(CN(C)C(=O)CSc2nc(-c3ccco3)cc(C(F)(F)F)n2)c(C)n1 | -28% | -22%
CCN(Cc1ccccc1)C(=O)c1nc(-c2cccc(F)c2)n2c1CCCCC2 | -7% | -8%
CCN1C(=O)[C@H]2[C@@H](c3ccc(-c4ccc(Cl)c(Cl)c4)cc3)N[C@@](C)(C(=O)OC)[C@H]2C1=O | ? | ?
CCC(CC)C(=O)Nc1cc(C(=O)OC)ccc1C(=O)OC | -7% | -1%
CC(C)CC(c1nnnn1C(C)C)N1CCN(c2cccc(Cl)c2)CC1 (centres undefined) | -5% | -23%
O=C(Nc1ccc2nc3n(c(=O)c2c1)CCCC3)c1cncc(Br)c1 | i | -14%
COCc1nnc(NC(=O)c2ccc(S(=O)(=O)N(C)c3ccccc3)cc2)o1 | -22% | -11%
Cc1ccc(CCNC(=O)C2CC(c3ccccc3C(F)(F)F)=NO2)cc1 (centres undefined) | i | -12%
COc1ccc([N+](=O)[O-])cc1NC(=O)Cn1ccc(C(F)(F)F)n1 | i | -16%
CCCC[C@@H]1CCCO[C@@](C(=O)NCc2ccc(C)o2)(C(F)(F)F)C1 | -3% | -13%

Additional results
SMILES | Vaccinia mCherry | VACV Venus inh
COc1cccc(/C=C/C(=O)OCC(=O)Nc2ccc(S(=O)(=O)N3CCCC3)cc2)c1 | -4% | -16%
CCOC(=O)C[C@H]1c2ccc(C(F)(F)F)cc2S(=O)(=O)N1Cc1ccccc1 | -11%&-3% | -11%&-17%
COc1cccc(CN2CCN(CC(=O)NCCc3ccccc3)CC2)c1 | -5% | -5%
O=C(/C=C/c1cccs1)Nc1ccc(S(=O)(=O)Nc2ncccn2)cc1 | i | -6%
CCOC(=O)Cn1nnnc1CN(Cc1ccc(OC)cc1)Cc1cc2cc(C)cc(C)c2[nH]c1=O | -14% | 7%
Cc1nc2ccccc2c(=O)n1-n1cnnc1 | i | -11%
CCC(C)(C)NC(=O)CN(C(=O)C(=O)Nc1ccc2c(c1)OCCO2)C(C)(C)CC | -9% | 0%
Cc1csc(NC(=O)CSCC(=O)Nc2ccccc2)n1 | . | ?
CCOc1ccc(S(=O)(=O)NCCC(=O)NCCOc2ccccc2)cc1 | -2% | 0%
CC(NS(=O)(=O)c1ccc(F)cc1)C(c1cccs1)N1CCOCC1 (centres undefined) | i | -9%
CCCCCN(C(=O)CCC(=O)OC(C)C(=O)c1ccc(CC)cc1)c1c(N)n(CCCC)c(=O)[nH]c1=O (centres undefined) | -25% | -10%
O=C(/C=C/c1ccc(F)cc1)NCc1ccco1 | -14% | 4%
CCn1c(C(O)c2ccc(C)cc2)nc2ccccc21 (centres undefined) | . | -11%
COc1ccc(-c2cnc3c(c2)C(=O)N([C@H](C)CO)C[C@H](C)[C@H](CN(C)C(=O)Cc2cccnc2)O3)cc1 | -10% | -20%
O=c1[nH]c2c(oc3ccccc32)c(=O)n1Cc1ccccc1 | -8% | -8%
Cn1cc(S(=O)(=O)N2CCOCC2)cc1C(=O)NCc1ccc(Cl)cc1 | i | -6%
O=C(CSc1nnc(Cn2cnc3ccccc32)o1)c1ccccc1 | -14% | -12%
Cc1ccc(Nc2nc(Nc3ccc(C)c(C)c3)nc(N3CCOCC3)n2)cc1C | 2%[7.34 µM] | -11%[7.34 µM]
COc1ccc(CC(=O)Oc2ccc(C(C)C)cc2)cc1S(=O)(=O)N1CCOCC1 | -12% | -12%
Cc1cccc(NC(=O)c2sc3nc4c(c(-c5ccco5)c3c2N)CCC4)c1 | -2% | -18%
CC(C)CC(=O)NC1(C(F)(F)F)NC(=O)N(c2ccccc2)C1=O (centres undefined) | -13% | -17%
C[C@@H]1CN(C(=O)c2ccc(OC3CCN(S(=O)(=O)N(C)C)CC3)cc2)C[C@H](C)O1 | -7% | -18%
O=c1c(-c2ccnn2-c2ccccc2F)cnc2n1CCS2 | i | -14%
CC(=O)Nc1cc(-c2cccc(C(=O)N(C)C)c2)cn2c(-c3cccc(C(F)(F)F)c3)cnc12 | ? | ?
CCN(CC)C(=O)Cn1nc(-c2ccncc2)nc1SCC(=O)Nc1ccc(OC)cc1 | -6% | -3%
COCC(=O)N1CCC(Oc2ccc(C(=O)N3C[C@@H](C)O[C@@H](C)C3)cc2)CC1 | i | -13%
Cc1c(C(=O)O)sc2nc(/C=C/c3ccccc3OC(F)F)[nH]c(=O)c12 | -2% | -6%
COc1ccc(NC(=O)N(C)C[C@@H]2Oc3cc(Br)ccc3S(=O)(=O)N([C@H](C)CO)C[C@H]2C)cc1 | i | -17%
COC(=O)c1ccc(Cl)cc1NC(=O)/C=C/c1ccc(C)o1 | -2% | -2%
O=C1CC(N(Cc2cccs2)C(=O)Nc2ccccc2)C(=O)N1c1ccc(Cl)cc1 (centres undefined) | 12% | -28%
